ClpP mod – qHTS Assay for Activators of ClpP. ATP-dependent Clp protease proteolytic subunit (Bacillus subtilis (strain 168)), P80244. purified B. subtilis ClpP, FRET peptide cleavage, 20 min. Potency, µM (top dose mostly 57.5 µM), without a hit: top-dose activity change, negative = active. 340,000 compounds, 1.9% hits; active = well fitted falling curve with a large enough effect; inconclusive = small, poorly fitted or top-dose-only effect; inactive = no such curve, though single readings can be large or run the other way; note: potency is the fitted concentration of half-maximal effect; the source files actives as falling curves though it sought activators and does not explain the sign; nearly all actives have a fitted effect of over 65% in size; many hits overshoot -100%
Target sequence (P80244 whole entry, looked up): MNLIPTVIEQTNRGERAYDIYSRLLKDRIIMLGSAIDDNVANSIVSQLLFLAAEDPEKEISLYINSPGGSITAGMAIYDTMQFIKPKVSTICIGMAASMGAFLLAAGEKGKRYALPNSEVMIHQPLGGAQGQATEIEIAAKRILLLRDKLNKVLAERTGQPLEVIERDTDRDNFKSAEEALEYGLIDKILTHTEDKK
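Buffer: 100 mM Tris/HCl pH8, 100 mM KCl, 0.05% low protease BSA, 2.5% glycerol, 0.01% Tween-20. ClpP 10 microg/mL final; 20 min RT; delta FRET normalized to ADEP and DMSO controls.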
D2 potentiator – positive allosteric modulators of human D2 dopamine receptor; P14416; DiscoveRx D2 beta-arrestin cells, luminescence, 90 min; 100% = 57 uM dopamine signal; potentiation, % (concentration not given with the values); 360,000 compounds, 0.23% hits; active = potentiation of 50% or more; inconclusive = 30% to 50%; inactive = 30% or less;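 note: tested on top of an EC20 dose of dopamine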
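PathHunter beta-arrestin assay in DiscoveRx D2 cells. Compounds were added with an EC20 of dopamine (50 nM final) for 90 min at 37 deg C. Luminescence was read 1 h after detection reagent, with 57 uM dopamine as the EC100 control.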
Menin-MLL FL inh – inhibitors of human menin-MLL interaction, wild-type MLL peptide. 290,000 tested, under 10 active. Fluorescence polarization, fluorescein-MLL peptide displacement from menin. FP activity change, % at 61.4 µM; inconclusive = falling polarisation curve, or a change in total fluorescence; inactive = total fluorescence flat and polarisation flat or rising; no compound was filed as active; the % refers to the polarisation; negative = inhibition;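 note: % of control where 0% means no effect; inhibitors lower the polarisation; unlabelled MLL peptide was the positive control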
Sfp inh – Sfp phosphopantetheinyl transferase inhibition; Potency, µM, for the others: max response, negative = inhibition, most hits filed as inhibitors; Biochemical Sfp PPTase activity, qHTS; 310,000 compounds, 3.5% hits; active = well fitted inhibition curve with a large enough effect; inconclusive = small, poorly fitted or top-dose-only effect, or another doubt; inactive = no such curve, though single readings can be large or run the other way;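 note: the enzyme is Sfp with the accession as filed and its product quenches rhodamine fluorescence; potency is the fitted concentration of half-maximal effect; 0% = enzyme reaction without inhibitor and -100% = no enzyme wells; top concentration of the series not given in the record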
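After 15 min at room temperature with compound, 15 nM Sfp received 5 uM rhodamine-CoA plus 12.5 uM BHQ-2-ybbR (50 mM Hepes pH 7.6, 10 mM MgCl2). Rate came from the fluorescence difference over 30 min, ex 525/em 598 nm.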
gsp antagonist – gsp mutant antagonism; AID 624288; 340,000 compounds, 0.4% hits; gsp-mutant cells, cAMP HTRF, 30 min; control for the full effect not named in the record; Potency, µM (top dose mostly 76.9 µM), for the others: at the top dose activity change, negative = inhibition, most hits filed as inhibitors; active = falling curve of any shape with a large fitted effect; inconclusive = falling curve, mostly with a smaller effect; inactive = flat or rising curve; cell line not stated here;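 note: intracellular cAMP measured with PDE inhibitor Ro 20-1724 present during compound exposure; potency is the fitted concentration of half-maximal effect; % is set by controls: 0 for no effect and ±100 for the full control effect; nearly all actives have a fitted effect of over 65% in size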
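HTRF cAMP measurement after 30 min RT detection following 30 min, 37C compound treatment alongside […] (added as 300 uM solution) in G418-selected cells seeded at 2000/well and grown 16–24 h.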
TRPV1 PAM – potentiators of human vanilloid receptor 1 (TRPV1); Q8NER1; TRPV1-expressing cells, Fluo-8 calcium influx, capsaicin EC20 potentiation; host cell line not named in the record; control for the full effect not named in the record; potentiation, % at 8.33 µM; 320,000 compounds, 0.02% hits; active means potentiation above 80%; inconclusive means 30% to 80%; inactive means below 30%; note: 0% is about no effect
Target sequence (Q8NER1 whole entry, looked up): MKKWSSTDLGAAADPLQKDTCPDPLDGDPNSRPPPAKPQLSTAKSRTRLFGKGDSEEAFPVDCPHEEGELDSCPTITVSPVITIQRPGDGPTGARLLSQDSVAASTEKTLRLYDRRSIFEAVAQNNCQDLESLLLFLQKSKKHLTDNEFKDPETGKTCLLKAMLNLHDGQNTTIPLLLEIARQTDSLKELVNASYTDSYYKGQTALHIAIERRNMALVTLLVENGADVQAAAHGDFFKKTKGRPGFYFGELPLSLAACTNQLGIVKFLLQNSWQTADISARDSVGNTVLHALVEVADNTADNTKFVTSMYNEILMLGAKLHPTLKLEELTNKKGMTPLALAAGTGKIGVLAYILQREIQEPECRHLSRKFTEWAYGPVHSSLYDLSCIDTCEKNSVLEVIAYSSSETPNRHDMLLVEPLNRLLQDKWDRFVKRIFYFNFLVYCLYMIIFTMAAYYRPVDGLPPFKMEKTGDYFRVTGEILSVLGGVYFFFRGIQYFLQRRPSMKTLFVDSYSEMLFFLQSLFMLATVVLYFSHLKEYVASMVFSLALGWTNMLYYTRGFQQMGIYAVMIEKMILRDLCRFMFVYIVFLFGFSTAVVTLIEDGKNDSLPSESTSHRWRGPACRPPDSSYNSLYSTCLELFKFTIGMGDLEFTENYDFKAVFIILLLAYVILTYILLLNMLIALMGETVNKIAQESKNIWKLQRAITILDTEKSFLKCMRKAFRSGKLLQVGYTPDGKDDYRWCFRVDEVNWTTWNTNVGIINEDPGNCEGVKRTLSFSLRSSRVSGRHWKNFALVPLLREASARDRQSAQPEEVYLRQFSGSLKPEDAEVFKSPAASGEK
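TRPV1-expressing cells were cultured overnight at 35.5C and loaded with Fluo-8 calcium dye for 40 to 90 min at room temperature. After a 10 s baseline, compound was added and calcium influx was read kinetically for 3 min (ex 480/em 520 nm).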
gsp ag – activates gsp, the McCune-Albright syndrome mutation; gsp mutant cells, cAMP HTRF, 30 min; control for the full effect not named in the record; Potency, µM (doses to about 76.9 µM), for inactives: top-dose activation (cAMP increase), hits mostly activators; 340,000 compounds, 0.13% hits; AID 624287; active = well fitted activation curve with a large enough effect; inconclusive = small, poorly fitted or top-dose-only effect, or another doubt; inactive = no such curve, though single readings can be large or run the other way; cell line not stated here;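 note: phosphodiesterase inhibitor Ro 20-1724 added with compounds to block cAMP breakdown; potency is the fitted concentration of half-maximal effect; nearly all actives have a fitted effect of over 60% in size; about a fifth of the inactives were tested at one dose only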
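Cells in DMEM/10% FBS with G418 were pretreated with compounds in DMSO plus […] (300 uM stock) for 30 min at 37C. cAMP was measured by HTRF (cAMP-d2 plus anti-cAMP antibody-K) after 30 min at room temperature.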
* hit, by the source's call; ? = inconclusive; · = not tested or not shown; & = joins results of further samples; [ ] = remark or other dose. Rows were taken by chance. About 5.1% of those tested had a hit in this group.

SMILES	ClpP mod	D2 potentiator	Menin-MLL FL inh	Sfp inh	gsp antagonist	TRPV1 PAM	gsp ag
Cc1ccc(CNS(=O)(=O)c2ccc(CN3C(=O)c4cccnc4C3=O)s2)o1	-1.2%	3	-4.7	3%	25%	-13	0%
CCOc1cccc(-c2cc(C(=O)Nc3ccon3)c3ccccc3n2)c1	-1.1%	-5	0.8	-5%	-7%	-2	16%[15.4 µM]
O=c1[nH]c(C2CCCN(S(=O)(=O)c3ccccc3)C2)nc2c1nnn2Cc1ccccc1 (stereo unspecified)	-1.6%	-4	-0.1	-12%	5%	4	-22%
CN(C)Cc1cc2ccccc2c2c1COC2	·	-5	4.8	14%	13%	-22	-4%
O=C(NCC1CCCN(C(=O)c2cccc(C(F)(F)F)c2)C1)c1ccc(F)cc1 (stereo unspecified)	-0.5%	-1	0.3	14%	-6%	-4	8%
CN(Cc1ccccc1)S(=O)(=O)c1ccc(NS(C)(=O)=O)cc1	-0.4%	-7	-1.5	13%	-16%	-15	9%
CCc1ccc(-c2cn(-c3nc(C)cc(C)n3)c(=N)o2)cc1	2.8%	-2	0.3	6%	-19%	2	-17%
COc1ccc(C(=O)NCc2ccncc2)cc1OC	·	-4	-5.3	23%	-3%	0	8%[15.4 µM]
NC(=O)C1=C[C@@H](c2ccc3c(c2)OCO3)C[C@@H](OCCCCO)O1	-8.8%	0	·	·	7%	·	?
O=C(Nc1ccc2c(c1)OCO2)C1CC(c2ccccc2O)=NO1 (stereo unspecified)	·	-5	-0.9	1%	-4%	-11	1%
O=C(Nc1cccc(F)c1)C1CCCN(S(=O)(=O)c2ccc(-n3cnnn3)cc2)C1 (stereo unspecified)	·	0	·	19%	-11%	7	12%[15.4 µM]
Cc1ccc(-c2cn3cc([N+](=O)[O-])ccc3n2)cc1	-11%	0	4.2	7%	-5%	15	4%[15.4 µM]

An excerpt from the list above, as a working copy:
SMILES	ClpP mod	D2 potentiator	Menin-MLL FL inh	Sfp inh	gsp antagonist	TRPV1 PAM	gsp ag
Cc1ccc(CNS(=O)(=O)c2ccc(CN3C(=O)c4cccnc4C3=O)s2)o1	-1.2%	3	-4.7	3%	25%	-13	0%
CCOc1cccc(-c2cc(C(=O)Nc3ccon3)c3ccccc3n2)c1	-1.1%	-5	0.8	-5%	-7%	-2	16%[15.4 µM]

Following part.
SMILES	ClpP mod	D2 potentiator	Menin-MLL FL inh	Sfp inh	gsp antagonist	TRPV1 PAM	gsp ag
COc1ccc(-c2csc(NC(=O)[C@H](C)N3C(=O)C4CC=CCC4C3=O)n2)cc1OC (stereo partly specified)	-2.2%	6	·	·	0%	·	2%
O=S(=O)(c1ccccc1)N1CCN(Cc2ccccc2)CC1	-1.3%&-0.1%	-2	0.7	5%	-1%	-1	-4%
CCCC(=O)Nc1cccc(NC(=O)c2cccc([N+](=O)[O-])c2C)c1	11µM*	-20	7.8	6%	-7%	3	5%
Cc1onc(-c2c(F)cccc2Cl)c1C(=O)Nc1c(C)n(C)n(-c2ccccc2)c1=O	1.0%	0	1.5	-7%	2%	5	-4%
COc1ccc(CCN(Cc2cc3cc(C)ccc3[nH]c2=O)C(C)=O)cc1OC	-9.5%	-2	-0.1	-6%	-12%	-3	3%
Cn1ncc(N=Cc2c(O)ccc3ccccc23)c1C(=O)Nc1cccc(Cl)c1	·	-3	?	?	-15%	13	3%
CC1(C)NC(=O)N(CCOc2cccc(Oc3ccccc3)c2)C1=O	1.5%	-15	1.6	8%	5%	-21	-23%
COC(=O)c1cc(S(=O)(=O)NCCc2ccccc2)c[nH]1	1.7%	0	0.9	13%	4%	-17	?
Cc1nc(NCCC(C)C)c2nnn(Cc3ccccc3)c2n1	-1.6%	1	-3.5	15%	-32%	-7	4%
Cc1nn(-c2ccccc2)c(Cl)c1/C=N/Nc1ccc(Cl)c(C(=O)O)c1	-2.2%	15	0.2	2%	?	4	3%[15.4 µM]
N=C1/C(=C\c2ccc(SCc3ccco3)o2)C(=O)N=C2SC=NN12	1.2%	-25	?	79µM*	-27%	-3	17%[15.4 µM]
CC1(C(=O)OCC(=O)Nc2ccc3ccccc3c2)CC1(Cl)Cl (stereo unspecified)	-1.6%	-8	-2.6	21%	-17%	-16	6%[15.4 µM]
Cc1c(Cl)cccc1NC(=S)NCc1ccc(F)cc1	·	-4	0.3	22%	5%	9	-78%[inhibitor]
COc1ccc(NC(=O)CSc2nc3ccccc3c(=O)n2-c2ccc3c(c2)OCO3)c(OC)c1	-4.4%	-13	3.0	-2%	26%	21	3%
O=C(O)CNC(=S)N(Cc1ccccc1)Cc1ccccc1F	1.3%	-1	2.7	28%	4%	6	-7%
Cc1csc(NC(=O)Cc2coc3cc(C)c(C(C)C)cc23)n1	-19%	-10	-0.1	19%	-10%	3	-30%[inhibitor]
Cn1ncc(C#N)c1/N=C/N1CCCCCC1	0.2%	3	0.3	17%	-8%	-20	-11%
O=C(Nc1ccc(Br)cc1F)c1ccncc1	0.8%	-4	1.9	19%	7%	-9	6%
C=CCN(c1ccccc1OC)S(=O)(=O)c1cccc(C(=O)NCc2ccco2)c1	·	-2	·	·	1%	·	1%
O=C1c2ccccc2C(=O)N1C(CO)C(O)c1ccc([N+](=O)[O-])cc1 (stereo unspecified)	0.5%	-5	-1.8	13%	0%	-5	-37%[inhibitor]
O=S(=O)(c1cccc2nonc12)N1CCN(c2ccccc2F)CC1	·	-5	3.2	1%	2%	0	13%[15.4 µM]
Fc1cccc(-c2csc(-c3ccno3)n2)c1	-8.7%	-14	0.4	?	2%	·	16%
Cc1ccc(C(=O)N2CCN(C(=O)N3CCOCC3)CC2)cc1	0.7%	-14	2.3	4%	0%	-7	-23%
CCC1(CC)NC(=O)N(CC(=O)N2N=C(c3ccc(Cl)cc3)CC2c2ccco2)C1=O (stereo unspecified)	·	-10	-0.2	-12%	4%	5	-2%[15.4 µM]
CC(NS(=O)(=O)c1ccccc1)C(=O)NCc1ccco1 (stereo unspecified)	-0.1%	-14	9.8	?	-9%	10	2%
CCOC(=O)CCc1c(C)nc2c(c(C)nn2-c2ccc(C)cc2)c1C	3.7%&-13%	2	-5.0	5%	4%	-5	-30%
N#C/C(=C\c1cn(Cc2ccc(F)cc2)c2ccccc12)C(=O)NCc1ccco1	-0.5%	4	?	-1%	37%[activator]	-3	-7%
COc1ccc(S(=O)(=O)N2CCN(CC(=O)Nc3c(C)n[nH]c3C)CC2)cc1OC	-1.5%	-28	·	·	8%	·	-14%[15.4 µM]
CC1(C(=O)NC2CCCCC2)CCC(=O)N1Cc1ccc2c(c1)OCO2 (stereo unspecified)	·	-6	1.9	17%	5%	7	30%[15.4 µM]
COc1ccc(NS(=O)(=O)c2cc(NC(=O)c3ccccc3F)ccc2N2CCCC2)cc1	·	-6	4.8	?	-1%	9	-24%[15.4 µM]
COc1ccc(NC(=O)COc2cccc3c2CCN(C)C3=O)c(OC)c1	-0.7%	4	·	7%	?	-5	-7%
O=C(NCCc1ccccn1)c1cc(C(=O)C2CCCCC2)c[nH]1	-1.1%	-6	1.0	20%	2%	8	-5%
CC1CCCCC12NC(=O)N(CC(=O)N1CCc3ccccc31)C2=O (stereo unspecified)	1.2%	-3	·	·	-2%	-3	-21%
CCOC(=O)c1nc2ccccc2c(C)c1C	·	-1	-1.3	-3%	-3%	?	7%
O=C(C[n+]1ccc(-c2ccccc2)cc1)Nc1ccc([N+](=O)[O-])cc1	0.0%	-9	-0.8	12%	3%	3	0%
COc1ccc(S(=O)(=O)N2CCCC2C(=O)n2nc(C)cc2C)cc1 (stereo unspecified)	·	-3	-0.6	-7%	3%	-4	-4%[15.4 µM]
O=C(CNCc1ccccc1)Nc1ccc(Cl)cc1	1.1%	-10	2.7	10%	9%	5	14%
COc1cccc(CC(=O)NNC(=O)CN(C)S(=O)(=O)c2ccc(C)cc2)c1	1.1%	-2	·	·	5%	·	2%
O=[N+]([O-])c1ccc(Sc2cccc3cccnc23)c([N+](=O)[O-])c1	1.9%	0	-0.3	?	5%	0	-32%[inhibitor]
CCc1nnc(NC(=O)CN2CCN(Cc3cccc(OC)c3)CC2)s1	·	-17	-0.9	-4%	-7%	10	1%
CC(Sc1cccc(C(F)(F)F)c1)C(=O)NC(N)=O (stereo unspecified)	-1.1%	-4	1.1	0%	6%	-3	-16%
CCOC(=O)CCCSc1nc2sc(C)c(C)c2c(=O)[nH]1	0.0%	-9	3.2	6%	-7%	11	-19%
COc1cccc2sc3ccc(NCc4ccc5c(c4)OCO5)cc3c(=O)c12	-13%	-10	?	-4%	3%	-4	·
Oc1ccc(-c2csc(Nc3cccc4ccccc34)n2)cc1O	·	-3	0.2	50µM*	3%	6	-87%[inhibitor]
Cc1ccc(CS(=O)(=O)c2ccc(C(=O)N3CCN(c4ccccn4)CC3)cc2[N+](=O)[O-])cc1	·	3	-2.9	17%	-30%	6	12%[15.4 µM]
COc1ccccc1CN1CC(C(=O)NCCc2ccc(C)o2)CCC1=O (stereo unspecified)	-0.4%	-2	·	?	-3%	-3	12%
CCCCn1c(N)c(N(CCC(C)C)C(=O)C2=NN(c3cc(C)ccc3C)C(=O)CC2)c(=O)[nH]c1=O	-1.4%	-2	·	·	0%	5	-2%[15.4 µM]
COc1ccc2cc(S(=O)(=O)NC3CC(C)(C)NC(C)(C)C3)ccc2c1	28µM*	-10	·	10%	13%	-11	-60%[inhibitor]
CCc1nnc(NS(=O)(=O)c2ccc(NC(=O)c3ccc(C#N)cc3)cc2)s1	·	-1	0.3	14%	6%	-5	-36%
CCN(CC)S(=O)(=O)c1ccc(N2CCCC2)c(NC(=O)Cc2ccc(OC)cc2)c1	-1.1%	-3	-2.0	2%	-2%	22	-4%[15.4 µM]
CCN(Cc1ccncc1)S(=O)(=O)c1ccc(C(C)=O)cc1	-3.9%	0	1.9	79µM*	-20%	-10	7%
C/C(=N\NC(=O)c1nnn(-c2nonc2N)c1-c1ccc2c(c1)OCO2)c1cccs1	4.1%	-5	·	9%	-22%	-8	-1%
COc1ccc(CN2CCCCCC2)cc1Br	-0.7%	-34	-7.4	0%	-22%	-11	0%[15.4 µM]
